From PubChem BioAssay
FGF22 binding: binders of recombinant human FGF22 by thermal shift; Q9HCT0; SYPRO orange fluorescence; percent of sucrose octasulfate shift, DMSO zero; calls only at 9.99 µM; 340,000 tested, 1.5% active; AID 651658;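 active means melting point raised past a set limit in the mean and every replicate; three in four hits are not shown here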
Target sequence (Q9HCT0 whole entry, looked up): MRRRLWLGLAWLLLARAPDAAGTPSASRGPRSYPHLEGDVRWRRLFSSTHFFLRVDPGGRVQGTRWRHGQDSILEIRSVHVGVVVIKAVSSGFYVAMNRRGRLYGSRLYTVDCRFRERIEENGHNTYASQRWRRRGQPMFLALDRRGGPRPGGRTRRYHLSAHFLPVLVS
rRNA inh HTS: selective bacterial rRNA inhibition in E. coli; GFP signal change (wild-type ribosome), % (concentration not given with the values); E. coli WT GFP vs humanized-ribosome RFP mutants, fluorescence, 24 h; active compounds read low; DMSO median 0, no signal -100; AID 720706; 350,000 tested, 1.6% active;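 active means significant combined selectivity score with lowered wild-type GFP, culture density cut under 30%, mutant RFP and density less affected; inactive means any of these conditions unmet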; further: one replicate is shown; some compounds called inactive have numbers as strong as hits
MLL AF4-AF9 inh: inhibitors of human MLL-AF4/AF9 interaction; P42568; AlphaScreen, biotin-AF4 peptide binding to FLAG-AF9; AID 651704; 350,000 tested, 0.47% active; inhibition, % at 10 µM;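 active means every replicate reaching a set inhibition limit, whatever the replicate mean, cut at about 25% in these data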;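 further: 0% = plate neutral control median and 100% = total signal loss; the record names both 10 and 1 µM as test concentration; the first replicate is given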
Target sequence (P42568 whole entry, looked up): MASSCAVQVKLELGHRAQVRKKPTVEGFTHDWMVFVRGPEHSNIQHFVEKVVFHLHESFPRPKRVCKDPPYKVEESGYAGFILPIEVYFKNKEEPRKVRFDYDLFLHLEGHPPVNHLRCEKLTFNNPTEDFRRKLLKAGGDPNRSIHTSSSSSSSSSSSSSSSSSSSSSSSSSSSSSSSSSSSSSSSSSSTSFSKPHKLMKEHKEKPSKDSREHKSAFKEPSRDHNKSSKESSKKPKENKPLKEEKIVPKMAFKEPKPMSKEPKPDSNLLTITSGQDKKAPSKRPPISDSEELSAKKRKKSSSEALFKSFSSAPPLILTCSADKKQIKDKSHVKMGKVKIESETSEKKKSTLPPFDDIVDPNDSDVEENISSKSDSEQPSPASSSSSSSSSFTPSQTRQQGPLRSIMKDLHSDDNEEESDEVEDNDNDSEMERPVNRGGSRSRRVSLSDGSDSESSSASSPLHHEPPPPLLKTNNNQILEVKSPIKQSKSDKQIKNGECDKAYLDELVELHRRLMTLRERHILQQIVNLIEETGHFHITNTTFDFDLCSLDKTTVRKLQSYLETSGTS
rRNA inh HTS OD600: further read-out of rRNA inh HTS, marked with its call; OD600 change, %; measured here: OD600 growth;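 optical density of the mix in the first replicate; 0 = DMSO median and -100 = no signal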
rRNA inh HTS RFP: second read-out of rRNA inh HTS, no call of its own (marks repeat the call); RFP signal change, %; measured here: RFP humanized mutant strains;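 first replicate; 0 = DMSO median and -100 = no signal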
Starred values were filed as active, the others as inactive; i = inactive; & = joins results of further samples.

smiles	FGF22 binding	rRNA inh HTS	rRNA inh HTS OD600	rRNA inh HTS RFP	MLL AF4-AF9 inh
CC(C)NC(=O)Nc1cccc2c1O[C@H](CN(C)C(=O)Nc1ccc3c(c1)OCO3)[C@@H](C)CN([C@@H](C)CO)C2=O	i	-1	7	0.9	-1.7
C[C@H](CO)N1C[C@H](C)[C@H](CN(C)Cc2ccc(C(=O)Nc3ccccc3N)cc2)Oc2ccc(NC(=O)c3ccncc3)cc2CC1=O	i	-3	2	-1.1	-12
O=C(Nc1cccc(Cl)c1)c1ccc2sc([C@@H]3O[C@H](CO)[C@H](O)[C@H](O)[C@H]3O)nc2c1	i	-4	9	2.3	-3.9
COc1ccc(C#Cc2cnc3c(c2)C(=O)N([C@@H](C)CO)C[C@@H](C)[C@H](CN(C)C(=O)c2ccccc2F)O3)cc1	i	-4	5	-1.2	-0.2
C[C@@H]1CN([C@H](C)CO)S(=O)(=O)c2ccc(Br)cc2O[C@H]1CN(C)C(=O)c1cnccn1	i	-1	0	-1.0	-0.4
CCOC(=O)C1(C)CCCN1C(=O)c1c(F)cccc1F (configuration not stated)	i	4	5	-0.8	-2.6
Cc1ccc(S(=O)(=O)N(C)C[C@@H]2Oc3ccc(NS(C)(=O)=O)cc3C(=O)N([C@H](C)CO)C[C@@H]2C)cc1	i	0	4	-2.0	-1.8
CN(C)CCCNC(=O)C[C@H]1CC[C@@H]2[C@H](COc3ccc(NC(=O)NC4CCCC4)cc3C(=O)N2C)O1	i	1	5	-1.2	-1.2
COCC(=O)N1C[C@@H](C)[C@@H](OC)CN(C)C(=O)c2cc(NC(=O)c3ccccc3)ccc2OC[C@H]1C	i	-1	1	-1.6	-3.7
CCCS(=O)(=O)NC(=O)C1(C)CCCN(C(=O)/C=C/c2ccccc2)C1 (configuration not stated)	i	16	13	-0.8	-1.4
COCC(=O)N1[C@H](C#N)[C@H](c2ccc(-c3cccc(F)c3)cc2)[C@@H]1CO	i	-1	-10	1.7	-0.6
CO[C@@H]1CN(C)C(=O)c2ccc(NC(=O)c3ccccc3F)cc2OC[C@H](C)N(CC2CC2)C[C@H]1C	i	0	0	-0.7	0.7
CO[C@@H]1CN(C)C(=O)c2cc(NC(=O)C3CCOCC3)ccc2OC[C@@H](C)N(C)C[C@H]1C	i	2	4	-0.5	-1.0
O=C(Nc1ccccc1)N1CCCCN2[C@H](C1)[C@@H](c1ccc(C3=CCCCC3)cc1)[C@@H]2CO	i	-53	-67	-6.1	2.5
COc1ccc2c3c([nH]c2c1)[C@H](CO)N(Cc1ccncc1)CC31CN(C(=O)Cc2ccncc2)C1	i	0	2	-1.5	1.0
O=C(Nc1ccc2c(c1)OCO2)N[C@@H]1CC[C@H](CC(=O)N2CCN(c3ccccc3)CC2)O[C@H]1CO	i	-4	0	1.7	1.7
C[C@@H]1CN([C@H](C)CO)C(=O)c2cc(C#Cc3ccncc3)cnc2O[C@@H]1CN(C)S(=O)(=O)c1ccccc1F	i	3	6	-0.2	-7.1
CCCCCCN1C[C@@H](O)[C@H](n2cc(C3CC3)nn2)C[C@@H]1c1ccc(OC)cc1	i	0	0	3.5	0.4
C[C@@H]1CN([C@H](C)CO)S(=O)(=O)c2ccc(-c3ccccc3F)cc2O[C@H]1CN(C)C(=O)C1CC1	i	-2	-22	-3.0	1.8
CO[C@H]1CN(C)C(=O)c2cc(NS(=O)(=O)c3ccccc3)ccc2OC[C@@H](C)N(C(=O)NC(C)C)C[C@H]1C	i	-1	0	-2.3	-11

The list goes on; it opens with the 2 that closed the last part.
smiles	FGF22 binding	rRNA inh HTS	rRNA inh HTS OD600	rRNA inh HTS RFP	MLL AF4-AF9 inh
C[C@@H]1CN([C@H](C)CO)S(=O)(=O)c2ccc(-c3ccccc3F)cc2O[C@H]1CN(C)C(=O)C1CC1	i	-2	-22	-3.0	1.8
CO[C@H]1CN(C)C(=O)c2cc(NS(=O)(=O)c3ccccc3)ccc2OC[C@@H](C)N(C(=O)NC(C)C)C[C@H]1C	i	-1	0	-2.3	-11
C[C@@H]1CCCCO[C@@H](CN(C)S(C)(=O)=O)[C@@H](C)CN([C@H](C)CO)C(=O)c2cc(NS(=O)(=O)c3cn(C)cn3)ccc2O1	i	3	21	0.5	0.1
COc1cccc(S(=O)(=O)N2[C@@H]3CNC[C@H]2C3c2ccc(-c3ccc(C(=O)N(C)C)cc3)cc2)c1 (some centres not stated)	i	5	25	0.6	2.6
O=C(C[C@H]1CC[C@H]2[C@@H](COC[C@H](O)CN2S(=O)(=O)c2ccccc2)O1)NCc1ccc(-c2ccccc2)cc1	i	-9	-4	0.8	21
CCC(=O)Nc1ccc2c(c1)C(=O)N(C)C[C@@H](OC)[C@H](C)CN(C(=O)Cc1ccccn1)[C@H](C)CO2	i	3	-4	0.7	-1.4
C[C@H]1CN([C@@H](C)CO)C(=O)c2cccc(NC(=O)Nc3ccc(F)cc3)c2O[C@H]1CN(C)Cc1ccncc1	i	4	26	-2.6	-1.2
O=C(C[C@@H]1C[C@@H]2c3cc(NC(=O)C4CCOCC4)ccc3O[C@@H]2[C@H](CO)O1)NCc1ccncc1	i	1	4	-1.2	-2.7
Cc1noc(C)c1S(=O)(=O)Nc1ccc2c(c1)C(=O)N([C@@H](C)CO)C[C@@H](C)[C@H](CN(C)C(=O)Cc1ccccc1)OCCCC[C@H](C)O2	i	-2	-8	-0.9	-2.1
N#C[C@@H]1[C@H](c2ccc(C#CC3CC3)cc2)[C@@H](CO)N1S(=O)(=O)c1ccccc1	i	2	3	-1.5	-0.2
C[C@@H]1CN([C@@H](C)CO)C(=O)c2cc(C#CCN(C)C)cnc2O[C@H]1CN(C)C(=O)c1cnccn1	i	2	11	-4.9	-3.3
CO[C@H]1CN(C)C(=O)c2cc(NC(=O)Cc3ccccc3)ccc2OC[C@@H](C)N(C(=O)c2ccccc2F)C[C@H]1C	i	0	0	-1.7	-0.4
O=C(C[C@@H]1C[C@H]2c3cc(NC(=O)c4cccnc4)ccc3O[C@H]2[C@H](CO)O1)NCc1cccc(F)c1	i	-3	-6	-3.0	-0.9
C[C@H](CO)N1C[C@H](C)[C@H](CN(C)C(=O)Nc2ccc(F)cc2)Oc2ncc(C#Cc3ccc(C(F)(F)F)cc3)cc2C1=O	i	0	-6	3.6	-1.0
COc1ccc(CN(C)C[C@@H]2OCc3cn(nn3)CCCC(=O)N([C@H](C)CO)C[C@H]2C)cc1	i	0	0	-2.2	-1.3
CC(C)CC#Cc1ccc2c(c1)O[C@H](CN(C)C(=O)c1ccncc1)[C@@H](C)CN([C@H](C)CO)S2(=O)=O	i	-2	-1	0.2	0.3
O=C(c1cccnc1)N1CC2(C1)[C@H](c1ccccc1)[C@@H](CO)N2C(=O)C1CCC1	i	1	3	-2.3	-3.6
Cc1noc(C)c1NC(=O)Nc1ccc2c(c1)C(=O)N(C)[C@@H]1CC[C@@H](CC(=O)N(C)C)O[C@H]1CO2	i	0	7	-1.2	0.4
CCCNC(=O)N1[C@H](CO)[C@@H](c2ccccc2)[C@@H]1C#N	i	5	20	-3.1	0.8
C[C@@H]1CCCCO[C@H](CN(C)Cc2ccc(C(=O)O)cc2)[C@H](C)CN([C@H](C)CO)C(=O)c2cc(N(C)C)ccc2O1	i	0	2	-1.4	2.4
Cn1c(=O)c2[nH]c(=S)n(Cc3ccccc3)c2n(C)c1=O	i	3	11	-0.4	-3.7
Cc1ccc(S(=O)(=O)Nc2ccc3c(c2)C(=O)N([C@H](C)CO)C[C@H](C)[C@@H](CN(C)C(=O)Nc2c(C)noc2C)O3)cc1	i	0	8	-1.6	-0.1

(continued)
smiles	FGF22 binding	rRNA inh HTS	rRNA inh HTS OD600	rRNA inh HTS RFP	MLL AF4-AF9 inh
C[C@@H]1CCCCO[C@@H](CN(C)C(=O)NC2CCCCC2)[C@@H](C)CN([C@H](C)CO)C(=O)c2cc(NS(=O)(=O)c3cn(C)cn3)ccc2O1	i	1	3	-1.0	-2.7
COC(=O)[C@]12CCCCC=C1N(CCC1=CCCCC1)C(=O)[C@H](CC(=O)NCc1ccc(C)o1)C2	i	-11	-8	6.0	-3.0
COc1ccc(C(=O)C=Cc2ccc3c(c2)OCO3)cc1OC	i	2	9	3.6	1.1
CCC(=O)Nc1ccc2c(c1)OC[C@@H](C)N(CC1CC1)C[C@H](C)[C@@H](OC)CN(C)C2=O	i	4	9	0.9	-0.2
CN1C(=O)c2cc(NC(=O)NCc3ccccc3)ccc2OC[C@@H]2O[C@@H](CC(=O)NCC3CCCCC3)CC[C@@H]21	i	-4	-19	0.8	-12
C/C=C/c1ccc2c(c1)O[C@H](CN(C)C(=O)Nc1cccc(F)c1)[C@@H](C)CN([C@H](C)CO)S2(=O)=O	i	-10	-30	-3.4	3.5
C[C@@H]1CCCCO[C@H](CN(C)C(=O)C2CCCCC2)[C@@H](C)CN([C@@H](C)CO)C(=O)c2cc(NC(=O)CCC(F)(F)F)ccc2O1	i	-1	2	-0.3	-1.2
C[C@H](CO)N1C[C@H](C)[C@@H](CN(C)Cc2ccc(Oc3ccccc3)cc2)Oc2ccc(NC(=O)C3CC3)cc2C1=O	i	-57	-70	-16	9.1
C[C@@H]1CN([C@H](C)CO)C(=O)c2ccccc2-c2ccccc2CO[C@@H]1CN(C)C(=O)[C@H]1CCCN1C	i	0	-3	-0.4	-1.2
C[C@@H]1CCCCO[C@H](CN(C)S(=O)(=O)c2ccc(Cl)cc2)[C@H](C)CN([C@@H](C)CO)C(=O)c2cc(NS(C)(=O)=O)ccc2O1	i	-6	-12	0.6	4.3
CC(C)(C)c1cc(CCC(=O)NNC(=O)c2ccncc2)cc(C(C)(C)C)c1O	i	-8	-5	7.8	-0.9
CC(C)NC(=O)N(C)C[C@@H]1OCCCC[C@@H](C)Oc2ccc(NC(=O)Nc3ccc4c(c3)OCO4)cc2C(=O)N([C@H](C)CO)C[C@@H]1C	i	4	10	-4.0	-1.6
CCN1C[C@@H]2[C@@H]3C(=O)N(C)C(=O)[C@@H]3[C@](CC)(C1=O)N2C(=O)c1ccc(C)cc1	i	8	3	-4.3	7.9
CCNC(=O)C[C@H]1CC[C@@H]2[C@H](COC[C@@H](O)CN2Cc2ccccc2F)O1	i	0	7	-6.0	0.0
C/C=C/c1ccc2c(c1)O[C@H](CN(C)CC1CCOCC1)[C@@H](C)CN([C@H](C)CO)S2(=O)=O	i	5&-2	7&-3	0.4&-1.0	-0.9&1.4&6.7
CCCNC(=O)N1CC[C@@H]2[C@H]1c1cc(-c3ccc(F)cc3)ccc1N(C)[C@H]2CO	i	-8	-17	1.8	15
Cc1ccc(S(=O)(=O)N(C)C[C@H]2Oc3c(NC(=O)Nc4c(C)noc4C)cccc3C(=O)N([C@H](C)CO)C[C@H]2C)cc1	i	2	3	0.5	-2.1
CO[C@@H]1CN(C)C(=O)c2ccc(NC(=O)CC(F)(F)F)cc2OC[C@@H](C)N(CC2CC2)C[C@@H]1C	i	1	1	-1.2	-4.4
CN(C)CCCNC(=O)[C@H]1[C@H](CO)[C@H]2Cn3c(ccc(-c4ccncc4)c3=O)[C@@H]1N2C(=O)CC1CC1	i	3	8	-0.3	-4.1
COc1cc(S(=O)(=O)Nc2ccccc2C(=O)N2CCCC2)ccc1NC(C)=O	i	6	9	-2.7	0.8

Arranged by SMILES length (descending): some entries from above
smiles	FGF22 binding	rRNA inh HTS	rRNA inh HTS OD600	rRNA inh HTS RFP	MLL AF4-AF9 inh
Cc1ccc(S(=O)(=O)N(C)C[C@H]2Oc3c(NC(=O)Nc4c(C)noc4C)cccc3C(=O)N([C@H](C)CO)C[C@H]2C)cc1	i	2	3	0.5	-2.1
C[C@@H]1CN([C@H](C)CO)C(=O)c2ccccc2-c2ccccc2CO[C@@H]1CN(C)C(=O)[C@H]1CCCN1C	i	0	-3	-0.4	-1.2
CCN1C[C@@H]2[C@@H]3C(=O)N(C)C(=O)[C@@H]3[C@](CC)(C1=O)N2C(=O)c1ccc(C)cc1	i	8	3	-4.3	7.9

The results go on:
smiles	FGF22 binding	rRNA inh HTS	rRNA inh HTS OD600	rRNA inh HTS RFP	MLL AF4-AF9 inh
C[C@H]1CN([C@@H](C)CO)C(=O)c2cc(NC(=O)Nc3ccccc3)ccc2O[C@@H]1CN(C)CC1CCCCC1	i	2	7	-0.9	1.5
COCC(=O)N(C)C[C@@H]1Oc2cc(C#C[C@@H](C)O)ccc2S(=O)(=O)N([C@@H](C)CO)C[C@@H]1C	i	4	4	-1.2	-2.6
O=C(CC(F)(F)F)N1C[C@H]2[C@@H](c3ccccc31)[C@@H](CO)N2CC1CCOCC1	i	-3	5	-0.9	-4.3
C[C@H](CO)N1C[C@H](C)[C@@H](CN(C)C(=O)Nc2ccccc2F)Oc2cc(Br)ccc2S1(=O)=O	i	-3&-3	1&5	2.9&-1.9	-2.5&-1.2
O=C(C[C@@H]1CC[C@@H]2[C@H](COC[C@H](O)CN2CCC(F)(F)F)O1)NCc1ccc2c(c1)OCO2	i	-5&4	-5&7	-1.6&3.3	-2.0&-0.1
O=C(c1ccc(F)cc1)C1CCN(Cc2ccccc2F)CC1	i	11	8	1.0	-3.1
CN(C)C(=O)[C@H]1[C@H](CO)[C@H]2Cn3c(cccc3=O)[C@@H]1N2C(=O)c1ccc(F)cc1	i	4	9	-3.1	-1.4

This is a subset; rates above refer to the full screens.
